# Source: PubChem (National Center for Advancing Translational Sciences (NCATS))
# NS1 inh = qHTS Assay for Inhibitors of Influenza NS1 Protein Function; S. cerevisiae slowed by influenza A NS1, growth recovery by OD600; Potency, µM (doses to about 46.1 µM), without a hit: top-dose activity, positive = more growth; 270,000 compounds, 0.4% hits; note: actives are rising curves; nearly all actives have a fitted effect of over 50% in size
#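 Compounds were scored for reversing the slow growth caused by influenza A NS1 in S. cerevisiae, measured by optical density at 600 nm. Assay medium contained 2% galactose at pH 6.0; NS1-free yeast of the same strain were the positive control.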
# Cruzain inh noDet = qHTS Assay for Promiscuous and Specific Inhibitors of Cruzain (without detergent) | Cruzipain (Trypanosoma cruzi), P25779 | purified cruzain, Z-FR-AMC fluorescence, no detergent | Potency, µM, without a hit: max response, negative = inhibition, most hits filed as inhibitors | 200,000 compounds, 2.3% hits | AID 1476, 2009; active = well fitted curve in the direction sought with a large enough effect; inconclusive = small, poorly fitted or top-dose-only effect, or another doubt; inactive = no such curve, though single readings can be large; an effect the other way counts as inactive or inconclusive;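 note: plate controls were enzyme without inhibitor for no effect and buffer without enzyme for full effect; nearly all actives have a fitted effect of over 40% in size; top concentration of the series not given in the record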
# Target sequence (P25779 123-467 limits assumed): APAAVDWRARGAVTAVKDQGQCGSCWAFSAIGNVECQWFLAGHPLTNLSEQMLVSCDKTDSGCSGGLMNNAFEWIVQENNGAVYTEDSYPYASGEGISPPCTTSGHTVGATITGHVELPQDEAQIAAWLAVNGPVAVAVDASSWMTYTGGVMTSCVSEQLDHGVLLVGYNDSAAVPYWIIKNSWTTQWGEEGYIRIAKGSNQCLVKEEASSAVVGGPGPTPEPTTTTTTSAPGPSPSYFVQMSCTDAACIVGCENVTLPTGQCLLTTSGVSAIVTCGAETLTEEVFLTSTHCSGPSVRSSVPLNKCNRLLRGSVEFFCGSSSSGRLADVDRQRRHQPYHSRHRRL
#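 Detergent-free condition (0.00005% Triton X-100) in acetate buffer pH 5.5 with DTT. 1.5 nM enzyme and compound were pre-mixed 15 min, then 2 uM Z-FR-AMC substrate added; reaction progress from fluorescence change between first and third reads (60 s).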
# StopGo reporter = High Throughput Screening for Foot and Mouth Disease Virus Antivirals; human cells with a luciferase reporter of 2A StopGo recoding; control for the full effect not named in the record; Potency, µM (doses to about 57.9 µM), for the others: at the top dose signal change, negative = less light; 410,000 compounds, 1.2% hits; AID 1159524, 2015; active = well fitted falling curve with a large enough effect; inconclusive = small, poorly fitted or top-dose-only effect; inactive = no such curve, though single readings can be large or run the other way; tested in HEK293T cells; note: % is set by controls: 0 for no effect and ±100 for the full control effect; nearly all actives have a fitted effect of over 45% in size; luciferase light after 4 h
# SARS PLpro yeast = qHTS of Yeast-based Assay for SARS-CoV PLP. AID 485353, 2010. S. cerevisiae expressing SARS-CoV PLpro, growth rescue; control for the full effect not named in the record. 330,000 compounds, 0.19% hits. Potency, µM (titrated, usually from 32.9 µM), for inactives: top-dose activity, positive = growth rescue; note: 0% is about no effect; nearly all actives have a fitted effect of over 55% in size; growth read by luminescence after 48 h
# LASV entry inh = qHTS for Inhibitors of binding or entry into cells for Lassa Virus | Lassa virus pseudotype entry inhibition, cell reporter; control for the full effect not named in the record | Potency, µM (titrated, usually from 37.9 µM), inactives show top-dose activity change, negative = inhibition, most hits filed as inhibitors | 300,000 compounds, 1.2% hits | AID 540256, 2011; active means well fitted inhibition curve with a large enough effect; inconclusive means small, poorly fitted or top-dose-only effect, or effect the other way; inactive means flat fitted curve, though single readings scatter; tested in HEK293 cells; note: % is set by controls: 0 for no effect and ±100 for the full control effect; nearly all actives have a fitted effect of over 50% in size; luciferase read-out
# Marburg entry inh = qHTS for inhibitors of binding or entry into cells for Marburg Virus. Marburg virus pseudotyped entry inhibition, cell reporter; control for the full effect not named in the record; about a third of the inactives were read at about 46 µM. Potency, µM (doses to about 37.8 µM), for the others: at the highest dose activity change, negative = inhibition, hits mostly inhibitors. 300,000 compounds, 1.8% hits. AID 540276, 2011; active = well fitted inhibition curve with a large enough effect; inconclusive = small, poorly fitted or top-dose-only effect, or effect the other way; inactive = flat fitted curve, though single readings scatter; tested in HEK293 cells; about a fifth of its hits are not listed in these tables; note: % is set by controls: 0 for no effect and ±100 for the full control effect; luciferase read-out
# Cruzain Triton = qHTS Assay for Promiscuous and Specific Inhibitors of Cruzain (with detergent). purified cruzain, Z-FR-AMC fluorescence, 0.01% Triton. Potency, µM, without a hit: max response, negative = inhibition, hits mostly inhibitors. 200,000 compounds, 0.43% hits. AID 1478, 2009; active = well fitted curve in the direction sought with a large enough effect; inconclusive = small, poorly fitted or top-dose-only effect, or another doubt; inactive = no such curve, though single readings can be large; an effect the other way counts as inactive or inconclusive;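 note: plate controls were neutral wells for no effect and buffer without enzyme for full effect; nearly all actives have a fitted effect of over 40% in size; top concentration of the series not given in the record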
#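 Read-out: AMC fluorescence (360 nm excitation, 450 nm emission), four reads over 2 min, first-to-third difference used. Conditions: cruzain 1.5 nM, Z-FR-AMC 2 uM, pH 5.5 acetate, 5 mM DTT, 0.01% Triton X-100.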
# RE007 growth inh = qHTS Assay for Inhibitors of the HIV-1 protein Vpr; 360,000 compounds, 0.21% hits; AID 651644, 2012; S. pombe RE007 Vpr strain, BacTiter-Glo ATP luminescence, 24 h; control for the full effect not named in the record; Potency, µM (highest dose often 92.2 µM), for the others: at the highest dose activity change, negative = less growth; active = well fitted falling curve with a large enough effect; inconclusive = small, poorly fitted or top-dose-only effect; inactive = no such curve, though single readings can be large or run the other way;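 note: % is set by controls: 0 for no effect and ±100 for the full control effect; nearly all actives have a fitted effect of over 50% in size; the assay follows cell death caused by Vpr and the record does not say whether a fall means rescue or toxicity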
#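 Fission yeast RE007 carrying one integrated HIV-1 vpr copy, seeded at OD 0.01 in PMG+AL medium with 23 nL pinned compound. Grown 24 h at 30 degrees; viability read by BacTiter-Glo luminescence after 5 min.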
# * marks the source's active call; other numbers are inactive results; ? = inconclusive; . = no result given; [ ] = dose if it differs, or a comment. Unless noted, calls come from the whole dose curve; as a rule, active means well fitted rising curve with a large enough effect; inconclusive means small, poorly fitted or top-dose-only effect; inactive means no such curve, though single readings can be large or run the other way. Potency is the fitted concentration of half-maximal effect.
cpd	structure	NS1 inh	Cruzain inh noDet	StopGo reporter	SARS PLpro yeast
1	COc1ccc(CCN2CC(C(=O)NCCc3cnn(C)c3)CCC2=O)cc1 (stereo not given)	0%	.	5%	6%
2	CCC1(C)CC(c2nc(-c3ccc(OC)cc3)cs2)CCS1 (stereo not given)	-15%	-9%	?	-2%
3	CC(C)(C)C1CCC(OC(=O)CCC(=O)Nc2ccccc2)CC1 (stereo not given)	1%	14%	-9%	11%
4	Cc1nc(-c2ccccc2O)n(S(=O)(=O)N(C)C)n1	-9%	2%	0%	-2%
5	CCC(C)[C@H](NC(=O)NC1CC1)C(=O)O (stereo not given in full)	1%	8%	11%	5%
6	C=CCNC(=O)c1ccccc1NC(=O)c1cccc2ccccc12	-4%	-8%	-11%	1%
7	N[C@@H](Cc1ccc(O)cc1)C(=O)Nc1ccc2ccccc2c1	.	.	20%	0%
8	CC1(CCc2ccccc2)NC(=S)N(c2ccccc2)N1 (stereo not given)	14%	-14%	-2%	-24%
9	COc1cccc(C2CC(c3ccc(Cl)cc3Cl)n3nc(N)nc3N2)c1 (stereo not given)	-5%	-5%	-14%	1%
10	CCc1ccc(-c2ccc3nnc(SCC(N)=O)n3n2)cc1	0%	.	-5%	-1%

cpd	LASV entry inh	Marburg entry inh	Cruzain Triton	RE007 growth inh
1	.	.	.	12%
2	-18%	-11%	-2.8%	-22%
3	2%	14%	-13%	23%
4	3%	-1%	8.0%	-10%
5	24%[14.3 µM]	16%	4.5%	7%
6	-7%	?	-7.6%	-5%
7	-11%	?	.	-27%
8	?	1%	-4.2%	126%
9	.	.	-4.6%	-4%
10	.	.	.	14%

# (listing goes on)
cpd	structure	NS1 inh	Cruzain inh noDet	StopGo reporter	SARS PLpro yeast
11	Cc1nc(=S)n(-c2ccccc2)[nH]1	7%	4%	-9%	0%
12	CCCCCCCNC(=O)C1(CC2CC(c3ccc(Cl)cc3)=NO2)CCN(C(=O)c2cc(OCC)c(OCC)c(OCC)c2)CC1 (stereo not given)	?	.	-15%	-2%
13	CCN(CC)S(=O)(=O)c1ccc2c(c1)N(CC(=O)Nc1cccc(C(C)=O)c1)C(=O)CO2	.	-6%	9%	.
14	O=c1[nH]c(/C=C/c2ccccc2)c([N+](=O)[O-])c(=O)[nH]1	-8%	.	-21%	6%
15	NC(=O)c1cc2n(n1)C(C(F)(F)F)CC(c1ccco1)N2 (stereo not given)	-4%	5%	-7%	-2%
16	Cc1cccc(S(=O)(=O)N2CCC(CO)(Cc3ccccc3)CC2)c1	-6%	.	-17%	1%
17	CCCOc1ccc(-c2nc(N3CCCCC3)c3ccccc3n2)cc1	.	6%	-22%	.
18	Cc1cccc(CNC(=O)CCCn2c(=O)c3cccn3c3ccc(F)cc32)c1	.	-2%	-22%	.
19	Cc1cc(C)n(-c2nnc(C)n2N)n1	-3%	2%	-9%	7%
20	CCN(CC(=O)NCc1cccs1)C(=O)c1ccc(NS(=O)(=O)c2ccc(C(C)=O)cc2)cc1	.	.	?	0%

cpd	LASV entry inh	Marburg entry inh	Cruzain Triton	RE007 growth inh
11	0%	9%	7.7%	1%
12	.	.	.	-1%
13	-1%[46.1 µM]	?	-2.4%	.
14	-4%	2%	.	0%
15	1%	-3%	1.6%	-19%
16	-25%	?	.	3%
17	9%[46.1 µM]	.	-0.5%	.
18	2%[46.1 µM]	.	-1.4%	.
19	0%	-6%[46.1 µM]	-2.8%	-1%
20	-9%	20%	.	26%

# New compounds follow:
cpd	structure	NS1 inh	Cruzain inh noDet	StopGo reporter	SARS PLpro yeast
21	Cn1c(=O)n(CCc2ccccc2)c(=O)c2c1ncn2Cc1ccccc1	-32%	?	-10%	-11%
22	COc1cccc(CNC(=O)N2CCc3c(sc4c3CCCC4)C2c2ccc(F)cc2)c1 (stereo not given)	.	6.3µM*	-10%	.
23	CCCCc1ccc(NC(=S)Nc2ccc(Cl)c(S(=O)(=O)N(C)C)c2)cc1	-20%	0%	-17%	4%
24	COc1ccc(-c2cc(C)no2)cc1S(=O)(=O)N1CCN(c2ccccc2F)CC1	15%	-9%	?	4%
25	CCOc1ccc(NC(=O)CN2CCN(CC(=O)Nc3cccc(F)c3)CC2)cc1	-16%	-1%	-3%	-5%
26	CCC(C)n1c(-c2ccco2)nc2nc3ccccc3nc21 (stereo not given)	-29%	24%	.	3%
27	CCCCOc1ccc(C(=O)Nc2nnc3n2CCS3)cc1	.	-3%	-6%	.
28	Cc1cccc(-c2noc(CN(C)C(=O)c3ccco3)n2)c1	-4%	.	0%	0%
29	Cn1nccc1C(=O)c1ccc(Cl)cc1	-10%	-1%	-11%	4%
30	O=C(COc1ccccc1[N+](=O)[O-])Nc1cccc(S(=O)(=O)N2CCCC2)c1	.	.	-8%	11%

cpd	LASV entry inh	Marburg entry inh	Cruzain Triton	RE007 growth inh
21	?	?	2.2%	11%
22	?	.	-2.2%	.
23	?	?	-6.4%	.
24	?	.	4.3%	-5%
25	7%	28%	-0.5%	4%
26	.	0%	?	.
27	3%[46.1 µM]	.	-1.7%	.
28	0%[46.1 µM]	?	.	21%
29	6%	?	0.7%	7%
30	?	?	.	4%

# Next section.
cpd	structure	NS1 inh	Cruzain inh noDet	StopGo reporter	SARS PLpro yeast
31	COCCCNC(=O)CN1C(=O)c2cccc3cccc1c23	4%	.	-9%	0%
32	O=C(Cc1ccccc1)NN1C(=O)C2C3C=CC(C3)[C@@H]2C1=O (stereo not given in full)	21%	-9%	-22%	-19%
33	COc1cc(SC)ccc1C(=O)Nc1ccc2c(c1)CCC2	-7%	.	11%	-3%
34	COc1ccc(-c2noc(CCC(=O)Nc3ccc4c(c3)OCCO4)n2)cc1	-21%	7%	0%	15%
35	COc1ccc(CC(=O)Nc2nnc(C(C)C)s2)cc1OC	1%	.	-19%	0%
36	CCc1ccccc1NCc1cc(=O)oc2cc(C)ccc12	24%	.	6%	12%
37	CCc1ccc(S(=O)(=O)N2CCN(c3ccccc3OC)CC2)cc1	2%	.	-12%	-2%
38	CCOC(=O)c1c(C#N)cnn1-c1ccc(C)cc1	-1%	-4%	-20%	2%
39	COc1ccc(-c2nc(CS(=O)CC(=O)NCCCN3CCOCC3)c(C)o2)cc1OC (stereo not given)	20%	.	-11%	5%
40	COc1cc(OC)c(CN2CCC(Cc3ccccc3)CC2)cc1Br	13%	.	-19%	-3%

cpd	LASV entry inh	Marburg entry inh	Cruzain Triton	RE007 growth inh
31	6%	7%	.	-1%
32	-13%	-5%	-0.5%	22%
33	-18%[46.1 µM]	?	.	-10%
34	-9%	?	-5.8%	-7%
35	7%	22%	.	-17%
36	-4%[46.1 µM]	-26%[46.1 µM]	.	6%
37	-15%	4%	.	9%
38	-1%	0%[46.1 µM]	0.4%	-10%
39	.	.	.	-14%
40	.	.	.	-14%

# Entries of single compounds as entered above.
# COc1ccc(-c2nc(CS(=O)CC(=O)NCCCN3CCOCC3)c(C)o2)cc1OC (stereo not given) in the list: NS1 inh: 20%; Cruzain inh noDet: .; StopGo reporter: -11%; SARS PLpro yeast: 5%; LASV entry inh: .; Marburg entry inh: .; Cruzain Triton: .; RE007 growth inh: -14%
# CCOC(=O)c1c(C#N)cnn1-c1ccc(C)cc1 in the list: NS1 inh: -1%; Cruzain inh noDet: -4%; StopGo reporter: -20%; SARS PLpro yeast: 2%; LASV entry inh: -1%; Marburg entry inh: 0%[46.1 µM]; Cruzain Triton: 0.4%; RE007 growth inh: -10%
# COc1cc(SC)ccc1C(=O)Nc1ccc2c(c1)CCC2 in the list: NS1 inh: -7%; Cruzain inh noDet: .; StopGo reporter: 11%; SARS PLpro yeast: -3%; LASV entry inh: -18%[46.1 µM]; Marburg entry inh: ?; Cruzain Triton: .; RE007 growth inh: -10%

# Continued:
cpd	structure	NS1 inh	Cruzain inh noDet	StopGo reporter	SARS PLpro yeast
41	O=C(Cn1nnc(-c2ccncc2)n1)Nc1ccc2c(c1)CCC2	-8%	-21%	-4%	1%
42	O=C1C(Cc2ccccc2O)NC(=S)N1c1ccccc1 (stereo not given)	2%	.	16%	-1%
43	Cc1cc(C)cc(C(=O)NC(=S)Nc2ccc3c(c2)OCCO3)c1	0%	3%	29%	6%
44	Cc1c(Br)cc(C(=O)NC2CCCCC2)c(C)c1C	6%	-11%	11%	0%
45	O=C(CCNC(=O)c1ccc(Br)cc1)NC1CCCc2ccccc21 (stereo not given)	.	.	-6%	-2%
46	O=C(NCCc1ccccc1)C1CC(=O)N(CCc2ccccc2)C1 (stereo not given)	-5%	.	-7%	4%
47	COC(=O)[C@H](C)NC(=O)Nc1ccc(Oc2ccccc2)cc1	-6%	-8%	.	-1%
48	COCc1cc(C)nc(OCC(=O)N/N=C/c2ccc(-c3cccc([N+](=O)[O-])c3)o2)c1C#N	13%	?	.	-7%
49	COC(=O)c1ccc(NC(=O)CCNS(=O)(=O)c2cccc3nsnc23)cc1	.	1%	15%	.
50	Cc1c(NC(=O)/C=C/c2cn(-c3ccccc3)nc2-c2ccc(F)cc2)c(=O)n(-c2ccccc2)n1C	4%	-5%	-17%	2%

cpd	LASV entry inh	Marburg entry inh	Cruzain Triton	RE007 growth inh
41	6%	2%	-1.7%	6%
42	6%	3%[46.1 µM]	.	-10%
43	-26%	?	-8.7%	-15%
44	-7%	?	4.5%	3%
45	7.1µM*	2.2µM*	.	-12%
46	.	.	.	-8%
47	1%	14%	-1.9%	-19%
48	.	.	-12%	.
49	11%[46.1 µM]	-5%[46.1 µM]	-3.9%	.
50	.	-1%	2.2%	3%
